Biofilm kill mix: mixture kills Candida albicans biofilm cells | C. albicans biofilm persisters + clotrimazole, fluorescence viability; primary screen in compound mixtures of four per well | inhibition, % at 7.6 µM | actives 0.02% (n = 120,000);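 active means inhibition above 30.3% in the primary screen of four-compound pools, then above 30% when the compound was retested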;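 further: compounds exposed to preformed 24 h biofilms for 48 h; the number belongs to the whole pool; some results filed as inactive read as strong as hits; inactives centre near 12; 0% = biofilm with clotrimazole alone and 100% = kill control; retested singly at about 60 µM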
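Probe or stimulus – Clotrimazole 50 µg/mL co-treatment · System – C. albicans biofilms · Schedule – 24 h biofilm formation, then 48 h compound exposure, 37 °C · Evaluation – percent inhibition of biofilm viability · Technique – 2-h Alamar Blue fluorescence, 535/590 nm excitation/emission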
* hit, by the source's call. An excerpt (hit frequency here may not be typical).

SMILES: CCOC(=O)CC(NC(=O)Cc1ccccc1)c1ccccc1Cl (stereo unspecified)
  Biofilm kill mix: 13.9

SMILES: CC(C)Oc1cccc(C(=O)NC(=S)NCc2cccnc2)c1
  Biofilm kill mix: 9.2

SMILES: Cc1nn(-c2ccccc2)c(C)c1/C=N/NC(=O)CSc1nnc(SCc2cccc3ccccc23)s1
  Biofilm kill mix: 18.9

SMILES: CC(=O)Nc1ccc(-c2cc(C(=O)O)c3ccccc3n2)cc1
  Biofilm kill mix: 18.8

SMILES: COCc1cc(=O)[nH]c(/N=C(\N)Nc2ccc(C)cc2C)n1
  Biofilm kill mix: 12.3

SMILES: CCN(CC(=O)Nc1cccc(OC)c1)CC(=O)Nc1ccc(C)cc1Cl
  Biofilm kill mix: 12.8

SMILES: COCc1ccc(C(=O)NC(C)c2cnn(-c3ccccc3C)c2C)o1 (stereo unspecified)
  Biofilm kill mix: 19.7

SMILES: Cc1cc(C)c(C#N)c(SCc2ccccc2[N+](=O)[O-])n1
  Biofilm kill mix: 0.8

SMILES: O=C(CCC(=O)Nc1nnc(C2CCCCC2)s1)NCc1ccccc1
  Biofilm kill mix: 22.4

SMILES: COc1ccc(N=Cc2cc3c(cc2O)OC(N)=C(C#N)C3c2ccccc2)cc1 (stereo unspecified)
  Biofilm kill mix: 10.6

SMILES: CC(/C=N\NC(=O)CN1CCN(Cc2ccccc2)CC1)=C\c1ccco1
  Biofilm kill mix: 4.0

SMILES: CCOC(=O)CSc1n[nH]c(NC(C)=O)n1
  Biofilm kill mix: 10.8

SMILES: COC(CNC(=O)c1cccc(-n2c(=S)[nH]c3cc(Cl)ccc3c2=O)c1)OC
  Biofilm kill mix: 4.8

SMILES: COc1ccc(/C=N/NC(=O)CCSc2nc3ccccc3s2)cc1
  Biofilm kill mix: 16.7

SMILES: CC1(C)OC2OC(C(=O)N/N=C/c3cc(Br)ccc3O)C3OC(C)(C)OC3C2O1 (stereo unspecified)
  Biofilm kill mix: 14.1

SMILES: CCOC(=O)c1c(C)n(C)c2cc(CN(C)C)c(O)c(S(=O)(=O)c3ccccc3)c12
  Biofilm kill mix: 1.8

SMILES: Cc1cc(C)c2nc(NNC(=O)c3ccc(S(=O)(=O)N4CCCCC4)cc3)sc2c1
  Biofilm kill mix: 14.5

SMILES: CSc1ncccc1C(=O)Nc1nc2ccc(F)cc2s1
  Biofilm kill mix: 11.5

SMILES: O=C1CSC(=S)N1/N=C/C=C/c1ccccc1
  Biofilm kill mix: 9.0

SMILES: Cc1cccc(NC(=S)N(CCCN2CCOCC2)Cc2cn(C)c3ccccc23)c1
  Biofilm kill mix: 16.5

SMILES: O=C(N/N=C/c1ccc[nH]1)c1ccccc1[N+](=O)[O-]
  Biofilm kill mix: 3.5

SMILES: COc1ccccc1CCc1nnc(CCC(=O)NC(C)Cc2ccsc2)o1 (stereo unspecified)
  Biofilm kill mix: 7.5

SMILES: CCOC(=O)c1ccc(-n2c(CN(CC)CC)nc3ccc([N+](=O)[O-])cc3c2=O)cc1
  Biofilm kill mix: 15.2

SMILES: CCOC(=O)Cc1cc(=O)n2[nH]c(-c3ccccc3)cc2n1
  Biofilm kill mix: 10.4

SMILES: COc1cc(C(=O)NCc2ccc(C(=O)NCC(OC)OC)cc2)cc(OC)c1OC
  Biofilm kill mix: 8.6

SMILES: COc1ccccc1NC(=S)NNC(=O)c1ccccc1Br
  Biofilm kill mix: 14.8

SMILES: Cc1ccc(NC(=O)C(c2ccccc2)C2CCCC2)cc1 (stereo unspecified)
  Biofilm kill mix: 1.3

SMILES: Cc1cccc(/C=N\Nc2nnc(-c3ccccc3)c(=O)[nH]2)c1
  Biofilm kill mix: 13.8

SMILES: CCc1c(C)nc(SCC(=O)Nc2nc(-c3ccc(OC)cc3)cs2)[nH]c1=O
  Biofilm kill mix: 7.5

SMILES: O=C(NC(=S)N1CCN(c2ccc(Cl)cc2[N+](=O)[O-])CC1)c1cccs1
  Biofilm kill mix: 10.4

SMILES: CCOC(=O)c1c2c([nH]c(=S)c1C#N)CCCC2
  Biofilm kill mix: 8.0

SMILES: COc1ccccc1-n1cc([C@@H]2C[C@H]3CN(c4ccccc4)C(=O)[C@]34CCCN24)cn1
  Biofilm kill mix: -2.1

SMILES: COc1ccc(C(=O)C2CCCN(C(=O)C3CCOCC3)C2)c(C)c1 (stereo unspecified)
  Biofilm kill mix: 18.7

SMILES: O=C1c2cccc(OCc3ccc(F)cc3)c2CCN1Cc1ccc(F)cc1
  Biofilm kill mix: 10.1

SMILES: C=CCNC(=S)Nc1ccc(Cl)cc1
  Biofilm kill mix: 15.7

SMILES: Cc1cccc(CN2CCc3c(OCC(=O)NCc4ccco4)cccc3C2=O)c1
  Biofilm kill mix: 2.4

SMILES: CCN(CC)c1nc(-c2ccccc2)nc2c1sc(=S)n2CC
  Biofilm kill mix: -0.8

SMILES: N#Cc1c(NC(=O)C2CCCO2)sc2c1CCCCCC2 (stereo unspecified)
  Biofilm kill mix: 10.5

SMILES: c1cncc(N=c2scc(-c3cccc4ccccc34)n2CCCn2ccnc2)c1
  Biofilm kill mix: -1.9

SMILES: COc1ccc(C2c3cc(OC)c(OC)cc3CCN2S(C)(=O)=O)cc1OC (stereo unspecified)
  Biofilm kill mix: 6.7

25 of the compounds above, with bars between the fields:
SMILES | Biofilm kill mix
CCOC(=O)CC(NC(=O)Cc1ccccc1)c1ccccc1Cl (stereo unspecified) | 13.9
CC(C)Oc1cccc(C(=O)NC(=S)NCc2cccnc2)c1 | 9.2
Cc1nn(-c2ccccc2)c(C)c1/C=N/NC(=O)CSc1nnc(SCc2cccc3ccccc23)s1 | 18.9
CC(=O)Nc1ccc(-c2cc(C(=O)O)c3ccccc3n2)cc1 | 18.8
COCc1cc(=O)[nH]c(/N=C(\N)Nc2ccc(C)cc2C)n1 | 12.3
CCN(CC(=O)Nc1cccc(OC)c1)CC(=O)Nc1ccc(C)cc1Cl | 12.8
COCc1ccc(C(=O)NC(C)c2cnn(-c3ccccc3C)c2C)o1 (stereo unspecified) | 19.7
Cc1cc(C)c(C#N)c(SCc2ccccc2[N+](=O)[O-])n1 | 0.8
O=C(CCC(=O)Nc1nnc(C2CCCCC2)s1)NCc1ccccc1 | 22.4
COc1ccc(N=Cc2cc3c(cc2O)OC(N)=C(C#N)C3c2ccccc2)cc1 (stereo unspecified) | 10.6
CC(/C=N\NC(=O)CN1CCN(Cc2ccccc2)CC1)=C\c1ccco1 | 4.0
CCOC(=O)CSc1n[nH]c(NC(C)=O)n1 | 10.8
COC(CNC(=O)c1cccc(-n2c(=S)[nH]c3cc(Cl)ccc3c2=O)c1)OC | 4.8
COc1ccc(/C=N/NC(=O)CCSc2nc3ccccc3s2)cc1 | 16.7
CC1(C)OC2OC(C(=O)N/N=C/c3cc(Br)ccc3O)C3OC(C)(C)OC3C2O1 (stereo unspecified) | 14.1
CCOC(=O)c1c(C)n(C)c2cc(CN(C)C)c(O)c(S(=O)(=O)c3ccccc3)c12 | 1.8
Cc1cc(C)c2nc(NNC(=O)c3ccc(S(=O)(=O)N4CCCCC4)cc3)sc2c1 | 14.5
CSc1ncccc1C(=O)Nc1nc2ccc(F)cc2s1 | 11.5
O=C1CSC(=S)N1/N=C/C=C/c1ccccc1 | 9.0
Cc1cccc(NC(=S)N(CCCN2CCOCC2)Cc2cn(C)c3ccccc23)c1 | 16.5
O=C(N/N=C/c1ccc[nH]1)c1ccccc1[N+](=O)[O-] | 3.5
COc1ccccc1CCc1nnc(CCC(=O)NC(C)Cc2ccsc2)o1 (stereo unspecified) | 7.5
CCOC(=O)c1ccc(-n2c(CN(CC)CC)nc3ccc([N+](=O)[O-])cc3c2=O)cc1 | 15.2
CCOC(=O)Cc1cc(=O)n2[nH]c(-c3ccccc3)cc2n1 | 10.4
COc1cc(C(=O)NCc2ccc(C(=O)NCC(OC)OC)cc2)cc(OC)c1OC | 8.6

The list goes on.
SMILES: CNC(=O)COC(=O)c1cccc(S(=O)(=O)N2CCN(c3ccc(F)cc3)CC2)c1
  Biofilm kill mix: 22.6

SMILES: COCCCN(CCCN)Cc1ccco1
  Biofilm kill mix: 5.3

SMILES: Cc1cc(C)c2sc(N(CCCN(C)C)C(=O)COc3ccc(Cl)cc3)nc2c1
  Biofilm kill mix: 11.3

SMILES: COc1ccc(CCn2c(-c3cc([N+](=O)[O-])cc([N+](=O)[O-])c3)nc3nc4ccccc4nc32)cc1OC
  Biofilm kill mix: 10.3

SMILES: CC1CC(C)(C)Nc2ccc(N=O)cc21 (stereo unspecified)
  Biofilm kill mix: 14.7

SMILES: COc1ccccc1OCCSc1nc2ccc([N+](=O)[O-])cc2s1
  Biofilm kill mix: 11.2

SMILES: CCN1CCN(C(=O)c2cc3c(=O)oc4ccc(C)cc4c3s2)CC1
  Biofilm kill mix: 21.7

SMILES: O=C(Nn1cnc2ccccc2c1=O)c1ccccc1[N+](=O)[O-]
  Biofilm kill mix: 12.2

SMILES: CC1SCC(NC(=O)c2ccccc2Cl)CS1 (stereo unspecified)
  Biofilm kill mix: 15.6

SMILES: CCCCOc1ccc(-c2c(C(=O)Nc3ccccc3)c(C)[nH]c(=S)c2C#N)cc1
  Biofilm kill mix: 8.9

SMILES: CCOc1ccc(NC(=O)CSc2ccc(-c3ccccn3)nn2)cc1
  Biofilm kill mix: 9.5

SMILES: Cc1ccnc(NS(=O)(=O)c2ccc(NC(=O)C(C)(C)C)cc2)n1
  Biofilm kill mix: 14.3

SMILES: CC(=O)Nc1ccc(CN2CCN(C3CCCC3)C(CCO)C2)cc1 (stereo unspecified)
  Biofilm kill mix: 3.4

SMILES: O=S1(=O)CCC(NC(=S)NCCNC(=S)NC2CCS(=O)(=O)C2)C1 (stereo unspecified)
  Biofilm kill mix: 11.1

SMILES: O=c1oc(-c2ccccc2NS(=O)(=O)c2ccc3ccccc3c2)nc2ccccc12
  Biofilm kill mix: 3.3

SMILES: CC1=NN(c2ccc(C)c(C)c2)C(=O)/C1=C/c1ccc2c(c1)n(C)c(=O)n2C
  Biofilm kill mix: 8.6

SMILES: COCCNC(=O)CN(C(=O)Cn1nnc2ccccc21)c1cccc(C)c1C
  Biofilm kill mix: 12.1

SMILES: COC(=O)Cc1ccc(NC(=O)c2ccc(NC(=O)c3ccco3)cc2)cc1
  Biofilm kill mix: 10.4

SMILES: c1ccc(C(c2ccccc2)N2CCN(C(c3ccccn3)c3nnnn3C3CCCC3)CC2)cc1 (stereo unspecified)
  Biofilm kill mix: -6.5

SMILES: Cc1cc(C)nc(SCc2ccc(C(=O)N/N=C/C3CCCCC3)cc2)n1
  Biofilm kill mix: 16.6

SMILES: COc1ccc(S(=O)(=O)N2CCC(NC(=O)C(Cc3cccc(OC)c3OC)NC(C)=O)CC2)cc1 (stereo unspecified)
  Biofilm kill mix: 6.9

SMILES: CCOC(=O)/C(C#N)=C/c1cn(CCC(=O)O)nc1-c1ccccc1
  Biofilm kill mix: 5.6

SMILES: Nc1ccc(NC2C[C@@H](C(=O)O)NC2=O)cc1 (stereo partly specified)
  Biofilm kill mix: 18.0

SMILES: CC(=O)NC1=C(NC2CCS(=O)(=O)C2)C(=O)c2ccccc2C1=O (stereo unspecified)
  Biofilm kill mix: 22.8

SMILES: CCOc1cc(/C=C2\NC(=S)N(c3c(C)n(C)n(-c4ccccc4)c3=O)C2=O)ccc1O
  Biofilm kill mix: 17.7

SMILES: CCOc1ccc(NC(=O)C(c2ccccn2)N(C(=O)CCl)c2ccc(F)cc2)cc1 (stereo unspecified)
  Biofilm kill mix: 5.8

SMILES: Cc1[nH]c2ccccc2c1/C=N/Nc1nc(N2CCCCC2)nc(N2CCCCC2)n1
  Biofilm kill mix: 13.8

SMILES: CCc1cc(C(=O)N=Nc2c(O)[nH]c3ccc([N+](=O)[O-])cc23)c2ccccc2n1
  Biofilm kill mix: 12.6

SMILES: O=Cc1ccc(-n2cc(C=O)c3ccccc32)cc1
  Biofilm kill mix: 20.2

SMILES: N=C1C(c2nc3ccccc3s2)=C(O)CN1NC(=O)c1c[nH]c2ccccc12
  Biofilm kill mix: 15.8

SMILES: O=c1oc2ccccc2cc1-c1csc(Cc2nc(-c3ccc(Cl)cc3)cs2)n1
  Biofilm kill mix: 10.9

SMILES: CC(=O)Nc1cccc(Oc2nc(-c3ccccn3)nc3ccccc23)c1
  Biofilm kill mix: 27.4

SMILES: Cc1ccc(S(=O)(=O)C2(C(=O)NC3CCCCC3C)CC2)cc1 (stereo unspecified)
  Biofilm kill mix: 18.8

SMILES: N#Cc1c(-c2ccco2)cc(-c2ccccc2)[nH]c1=O
  Biofilm kill mix: 14.1

SMILES: CCc1n[nH]c(=S)n1/N=C/c1c[nH]c2ccc(Br)cc12
  Biofilm kill mix: 8.9

SMILES: COc1cc(NS(=O)(=O)c2ccc(Cl)cc2)c(C(=O)O)cc1OC
  Biofilm kill mix: 14.8

SMILES: CC1CCc2sc(C(=O)N/N=C/c3ccc([N+](=O)[O-])cc3)cc2C1 (stereo unspecified)
  Biofilm kill mix: 13.1

Assay outcomes from PubChem.
